From PubChem
Rango release inh – inhibitors of RanGTP-induced Rango-importin beta complex dissociation; O95149+P62826; Biochemical FRET Rango-importin beta, RanGTP-induced dissociation; Potency, µM (titrated, usually from 46.1 µM), for inactives: top-dose activity change, negative = inhibition; 340,000 compounds, 0.071% hits; active means falling FRET ratio curve, often poorly fitted, with flat reads before Ran was added; inconclusive means other falling curves, or compound fluorescence or quenching; inactive means flat or rising ratio curve;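 further: potency means the concentration at half of the fitted maximal effect; % of control where 0% means no effect; nearly all actives have a fitted effect of over 45% in size; -100% = wells without RanGTP and RCC1; the record marks most hits as doubtful in a second field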
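Quantitative HTS using a FRET biosensor: 0.1 uM Rango, 0.25 uM importin beta, 0.6 uM Ran, 2 mM GTP, 0.2 uM RCC1 final, PBS with DTT, Tween-20 and BSA. Post-read taken 45 min after Ran addition.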
miR-21 reporter – miR-21 reporter, rising signal. Potency, µM (doses to about 38.3 µM), for the others: at the highest dose reporter change, positive = more light. HeLa miR-21 FLuc reporter, luciferase, 48 h. 340,000 tested, under 10 active; active = well fitted rising curve with a large enough effect; inconclusive = small, poorly fitted or top-dose-only effect; inactive = no such curve, though single readings can be large or run the other way;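 further: % of control where 0% means no effect; miR-21 action dims this reporter so a rising signal means less miR-21 action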
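Luminescence from a firefly luciferase reporter carrying a miR-21 binding site downstream, stably expressed under a CMV promoter in HeLa cells that make miR-21 endogenously, reports miRNA modulation after 48 h compound exposure up to approximately 40uM final.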
GLA inh pH 4.5 – alpha-galactosidase A (human) inhibition, pH 4.5; purified enzyme, 4-MU-alpha-Gal fluorescence, pH 4.5; activity change, negative = inhibition, % at 105 µM; 230,000 tested, under 10 active; inconclusive = small, poorly fitted or top-dose-only inhibition, or a rising curve; inactive = flat fitted curve, though single readings scatter; no compound was filed as active;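 further: 0% = full activity with enzyme and -100% = basal without enzyme; dose as in the result columns while the protocol names 77 µM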
Rango-impB inh – prevents formation of the Rango-importin beta complex; Q14974; 340,000 compounds, 0.031% hits; Potency, µM (titrated, usually from 92.2 µM), without a hit: at the highest dose inhibition of complex formation; Rango CFP/YFP FRET sensor + importin beta, 45 min; active = rising FRET ratio curve, often small or poorly fitted; inconclusive = mostly compound fluorescence or quenching in the first reads; inactive = flat curves in all reads;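 further: potency means the concentration at half of the fitted maximal effect; 0% = DMSO wells and 100% = buffer wells lacking importin beta; nearly all actives have a fitted effect of over 15% in size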
Target sequence (Q14974 whole entry, looked up): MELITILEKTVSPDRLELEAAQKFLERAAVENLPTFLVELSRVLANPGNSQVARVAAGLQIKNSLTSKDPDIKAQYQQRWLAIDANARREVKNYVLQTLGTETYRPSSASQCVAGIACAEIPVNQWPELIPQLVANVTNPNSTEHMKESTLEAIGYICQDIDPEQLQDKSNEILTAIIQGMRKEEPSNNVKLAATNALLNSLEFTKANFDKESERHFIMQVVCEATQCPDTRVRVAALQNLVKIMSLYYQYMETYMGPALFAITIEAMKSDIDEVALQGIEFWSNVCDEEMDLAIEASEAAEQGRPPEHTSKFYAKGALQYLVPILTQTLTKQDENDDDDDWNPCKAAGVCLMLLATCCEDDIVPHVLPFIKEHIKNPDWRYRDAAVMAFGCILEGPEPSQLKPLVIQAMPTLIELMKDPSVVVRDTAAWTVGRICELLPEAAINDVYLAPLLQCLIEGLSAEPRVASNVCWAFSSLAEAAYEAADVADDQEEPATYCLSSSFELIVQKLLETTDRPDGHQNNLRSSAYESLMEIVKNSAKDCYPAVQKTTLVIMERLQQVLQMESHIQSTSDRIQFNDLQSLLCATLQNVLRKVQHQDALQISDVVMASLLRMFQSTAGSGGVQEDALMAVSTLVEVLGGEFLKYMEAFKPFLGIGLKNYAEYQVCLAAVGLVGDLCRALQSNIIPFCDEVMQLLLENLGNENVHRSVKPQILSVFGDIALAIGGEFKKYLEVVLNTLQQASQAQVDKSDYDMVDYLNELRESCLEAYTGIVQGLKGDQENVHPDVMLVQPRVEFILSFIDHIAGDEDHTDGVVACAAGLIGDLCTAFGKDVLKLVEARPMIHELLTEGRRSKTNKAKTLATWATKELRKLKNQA
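FRET biosensor Rango (snurportin 1 IBB between N-terminal EYFP and C-terminal Cerulean), 50 nM in PBS/1 mM DTT/0.02% Tween-20/0.1% BSA, preincubated 5 min RT with compound; 0.125 microM importin beta added, 45 min RT, CFP/YFP FRET ratio read.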
Active calls of the source: *; ? = inconclusive; / = no result given; & = joins results of further samples.

Second line of a record: Rango release inh	miR-21 reporter	GLA inh pH 4.5	Rango-impB inh
- COCCn1c(C)cc(C(=O)CSc2ccc3ccccc3n2)c1C
  1%	-46%	-1	-2.0%
- CCCCN(CCCC)CP(=O)(c1ccccc1)c1ccccc1
  -4%	23%	-8	-0.2%
- COc1ccc2cc(OCC(=O)NNC(=O)Nc3ccc(OC)c(OC)c3)ccc2c1
  14%	1%	/	3.3%
- Cc1ccccc1-c1nnc(CS(=O)(=O)c2ccccc2)o1
  -6%	-38%	/	-0.7%
- O=C(NCc1ccccn1)c1ccc(CNS(=O)(=O)c2cccc(Cl)c2)cc1
  10%	-5%	-16	-3.3%
- Cn1c(C(=O)NCCCN2CCc3ccccc3C2)cc2c(=O)n(C)c3ccccc3c21
  ?	-23%	-3	?
- CC(=O)N1CCC(C(=O)Nc2nc(-c3ccccc3)ns2)CC1
  -4%	16%	2	-3.3%
- COC(=O)N1[C@H](Cc2ccccc2)C=C[C@]1(C)C(=O)O
  10%	2%	-1&-3	0.6%
- COc1cccc2sc(N(CCCN(C)C)C(=O)C(c3ccccc3)c3ccccc3)nc12
  0%	?	-10	5.1%
- CC1CCCC(C)N1CC(O)COc1ccc(Cl)cc1 (stereo not given)
  -9%	-7%	11	-1.0%
- COc1ccccc1CNc1ccc(CNc2ncn[nH]2)cc1
  1%	-4%	-7	-3.2%
- NC(=O)NOCc1ncc(C(F)(F)F)cc1Cl
  17%	-8%	-1	4.4%
- CS(=O)(=O)N(CC(=O)N1CCN(c2ccc(F)cc2)CC1)C1CCCCC1
  -4%	-9%	2	-0.5%
- CC(C)(C)NS(=O)(=O)c1ccc(OCC(=O)Nc2ccc3c(c2)OCCO3)cc1
  -3%	0%	-2	-1.1%
- CN(C)S(=O)(=O)c1cccc2nsnc12
  -24%	-11%	7	-3.7%
- Cn1c(Cn2c(=O)sc3ccccc32)nnc1SCC(=O)N1CCCC1
  -5%	-8%	-1	6.8%
- COc1cc(-c2noc(C)c2C(=O)NCCc2c[nH]c3ccccc23)cc(OC)c1OC
  -24%	0%	/	4.4%
- O=C(NC1CCCCC1)C(=S)NCc1ccccc1
  26%	-50%	-1	?
- CCN(CC)S(=O)(=O)c1ccc(C(=O)OCC(=O)NCCN2C(=O)CSC2=O)cc1
  7%	-14%	-4	-0.8%
- CCOC(=O)C1CCN(C(=O)c2ccco2)CC1
  -2%	-2%	-5	-1.3%
- COC(=O)c1ccc(CSc2nc3ccc(S(=O)(=O)N4CCOCC4)cc3[nH]2)cc1
  17%	-3%	-5	9.0%
- CCOc1ccc(NC(=O)CN(C)C(=O)c2n[nH]c(=O)c3ccccc23)cc1OCC
  10%	/	/	-2.3%
- CS(=O)(=O)N1N=C(c2ccco2)CC1c1ccc(Cl)cc1 (stereo not given)
  1%	-39%	1	0.4%
- CC1CCN(Cc2cc(=O)oc3cc4c(cc23)CCCC4)CC1
  -9%	-8%	-8	0.0%
- O=C(c1cccc(S(=O)(=O)N2CCCC2)c1)N1CCCC(C(F)(F)F)C1 (stereo not given)
  34%	/	/	4.9%
- CC(C)C(=O)Nc1ccc2c(c1)C(=O)N(CCC(=O)O)C2=O
  -1%	-1%	-3	8.2%
- COC(=O)c1ccc(Oc2ccc(C(C)(C)C)cc2)c([N+](=O)[O-])c1
  1%	-1%	-8	-0.2%
- NS(=O)(=O)c1ccc(NC(=S)NC(=O)c2cccc(Br)c2)cc1
  -1%	9%	-3	?
- N#Cc1ccccc1OCC(=O)OCC(=O)NCc1ccc2c(c1)OCO2
  -1%	/	/	0.0%
- CC(=O)CC(c1ccccc1)c1c(O)c2ccccc2oc1=O (stereo not given)
  10%&-3%&-7%	-2%&1%	-2	-1.6%&-2.0%&-2.8%
- O=C(CSc1ncc(-c2ccccc2)n1CC1CCCO1)N1CCCCC1 (stereo not given)
  1%	1%	-2	-0.4%
- Cc1ccc(C(=O)OCC(=O)NCc2ccc3c(c2)OCO3)cc1S(=O)(=O)N1CCOCC1
  16%	/	/	?
- CN(CC(=O)Nc1ccccc1C(F)(F)F)C(=O)Cn1c(=O)oc2ccccc21
  12%	/	/	1.1%
- Cc1nn(CC(=O)N2CCc3ccccc3C2)c(C)c1Cl
  -14%	-1%	/	0.9%
- CCCCCCc1cc2cc(S(=O)(=O)c3ccc(F)c(Cl)c3)c(=O)oc2cc1O
  ?	-6%	-4	?
- O=C(CNC(=O)c1ccc(Br)o1)Nc1cccc(S(=O)(=O)N2CCOCC2)c1
  -15%	/	/	-4.1%
- O=C(Cc1ccc2c(c1)OCCO2)N1CCN(S(=O)(=O)c2cccc(C(F)(F)F)c2)CC1
  5%	-7%	0	?
- Cc1ccc2c(c1)NCC(C(=O)NCc1ccccc1)O2 (stereo not given)
  4%	-5%	-3	-1.3%
- O=C(CSc1nc2nn(-c3ccccc3)c(=O)c-2c2n1CCCCC2)c1ccc(O)c(O)c1
  2%	/	/	-3.0%
- Cc1cc(NN)nc(NS(=O)(=O)c2ccc(Cl)cc2)n1
  ?	-5%	-5	1.8%
- COc1cc(Cl)c(S(=O)(=O)N2CCOCC2)cc1Cl
  -14%	-7%	1	3.5%
- O=C(NC1CCCc2c1cnn2-c1ccccc1F)c1ccccc1N1CCOCC1 (stereo not given)
  -15%	1%	/	-4.7%
- Cc1nnn(-c2nonc2N)c1C(=O)N/N=C/c1cccc2ccccc12
  -3%	-12%	-2	2.2%
- C=CCn1c2ccccc2c2nnc(SC(CC)C(=O)Nc3sc4c(c3C#N)CCCC4)nc21 (stereo not given)
  0%	2%	-3	0.4%
- COc1ccc(C2=Nn3c(nnc3-c3ccc(OC)cc3)SC2)cc1
  30%	23%	-18	5.5%
- COc1cccc(Cl)c1NC(=O)N1CCc2c([nH]c3ccccc23)C1C(F)(F)F (stereo not given)
  7%	-4%	-19	7.0%
- CC(=O)c1cccc(CN2CCC(C(=O)Nc3ccc(-c4cccc(C)c4)cc3)CC2)c1
  1%	24%	/	1.6%
- CN(C(=O)CSc1ncnc2sc3c(c12)CCC3)C1CCS(=O)(=O)C1 (stereo not given)
  0%	/	/	0.9%
- Cc1nnc(SCCC(=O)Nc2ccc(F)cc2)s1
  13%	-2%	0	0.0%
- COc1ccc(Cn2ccc(=O)c(Cc3c(Cl)cccc3Cl)c2C)cc1
  -7%	1%	1	3.5%
- CC(=O)NC1=NN(C(C)=O)C(C)(c2ccc(Cl)s2)S1 (stereo not given)
  -9%	27%	-9	11%
- COc1cc(OC)cc(C(=O)NN2CCCCC2)c1
  -1%	0%	5	-0.6%
- COc1ccccc1-c1nc(-c2ccccn2)no1
  13%	?	-2	-2.6%
- Cc1nc(-c2ccncc2)sc1C(=O)Nc1ccc(Br)cc1
  8%	-20%	0	-0.9%
- Cc1ccc(C2(C)NC(=O)N(CC(=O)Nc3ccccc3N3CCCCC3)C2=O)cc1 (stereo not given)
  7%	/	/	-0.1%
- CCc1c(C)nc2nc(SCc3ccccc3Cl)[nH]n2c1=O
  2%	-17%	/	4.8%
- N#Cc1c2n(cnc1=O)CCCCC2
  -21%	-2%	1	-0.7%
- CC1CN(c2nn3c(=O)c4ccccc4nc3c3ccccc23)CC(C)O1 (stereo not given)
  -16%	-1%	-6	-4.2%
- O=C1CCN(Cc2ccccc2)C(=O)N1c1ccccc1
  0%	4%	5	-0.5%
- O=S(=O)(/C=C/c1ccccc1)Nc1ccc(N2CCOCC2)cc1
  18%	-9%	0	-1.9%

(cont.)
Second line of a record: Rango release inh	miR-21 reporter	GLA inh pH 4.5	Rango-impB inh
- CCOC(=O)/C(C#N)=N\Nc1ccc(S(=O)(=O)Nc2nc(C)cc(C)n2)cc1
  -4%	-20%	-1	-0.7%
- O=C(c1ccc(F)cc1)N1CCOCC1
  -3%	-1%	4	4.9%
- O=C(CCC(=O)c1ccc(Oc2ccccc2)cc1)Nc1cccc(Cl)c1
  -6%	-3%	-1	-1.8%
- O=C(Cn1nnc(-c2ccccc2)n1)NNC(=O)c1ccc(Br)cc1
  -27%	-1%	4	-0.5%
- COc1ccc(N(CC(=O)Nc2cc(C)ccc2C)S(=O)(=O)c2c(C)nn(C)c2C)cc1
  -2%	-2%	-8	-1.8%
- CC1=C(C(=O)Nc2ccccc2)C(c2cccnc2)n2nc(-c3cccnc3)nc2N1 (stereo not given)
  -16%	0%	-2	-7.5%
- COC(=O)Oc1cncc(C(=O)O)c1
  10%	0%	7	3.2%
- O=C1CCc2cc(S(=O)(=O)NC3CCCCC3)cc3c2N1CC3
  12%	/	/	-0.7%
- Cc1ccc(S(=O)(=O)N2CCN(C(=O)Cc3ccsc3)CC2)c(C)c1
  -9%	-2%	/	0.1%
- Cc1cc(C)cc(NC(=O)C2CCCN2S(=O)(=O)c2ccc3c(c2)C(C)(C)C(=O)N3C)c1 (stereo not given)
  -20%	0%&-2%	/	-2.6%
- Cc1ccc(OCCC(=O)O)cc1
  -9%	0%	5	0.3%
- CC(=O)N1c2ccccc2NC2=C(C(=O)CCC2)C1c1ccc(F)cc1 (stereo not given)
  23%	5%	-15	-0.2%
- CN(c1ccccc1)S(=O)(=O)c1cccc(NC(=O)CSc2ncc(C(F)(F)F)cc2Cl)c1
  1%	-1%	4	2.9%
- COc1ccc(/C=C/C(O)=C(\C#N)c2nnc(N3CCOCC3)n2-c2ccccc2)cc1OC
  -24%	-2%	-8	?
- Cc1ccc(OC(=O)CCC(=O)N2CCc3ccccc32)cc1
  -17%	-1%	-6	1.5%
- Cc1ccc(C(=O)Nc2cc(C(C)C)c(O)c(C(C)C)c2)cc1
  14%	0%	-8	-0.7%
- CC(=O)Nc1ccccc1C(=O)C(=O)Nc1cccc(C(=O)N2CC(C)CC(C)C2)c1 (stereo not given)
  -3%	22%	-2	-1.3%
- COc1cc(SC)ccc1C(=O)NCc1ccc(C)cc1
  1%	-38%	?	1.6%
- CC(NC(=O)C(=S)N1CCN(C)CC1)c1ccccc1 (stereo not given)
  2%	0%	8	0.4%
- O=S(=O)(c1ccccc1)N1CCSC1c1ccco1 (stereo not given)
  -5%	-12%	-2	-3.2%

Reformatted field by field: two of the compounds above
COC(=O)Oc1cncc(C(=O)O)c1
  Rango release inh: 10% | miR-21 reporter: 0% | GLA inh pH 4.5: 7 | Rango-impB inh: 3.2%

O=C1CCc2cc(S(=O)(=O)NC3CCCCC3)cc3c2N1CC3
  Rango release inh: 12% | miR-21 reporter: / | GLA inh pH 4.5: / | Rango-impB inh: -0.7%

Other results
Second line of a record: Rango release inh	miR-21 reporter	GLA inh pH 4.5	Rango-impB inh
- COc1ccccc1N1CC(C)(C)C(=O)N(C(=O)c2c(F)cccc2Cl)C1=S
  5%	2%	-2	-1.7%
- CNC(=O)c1ccsc1NC(=O)CS(=O)(=O)c1ccccc1
  -4%	/	/	1.4%
- CCN(C(=O)Cn1cnc2c1c(=O)n(C)c(=O)n2C)C1CCS(=O)(=O)C1 (stereo not given)
  26%	/	/	-2.1%
- O=C(N/N=C1/CCSC1)c1cccc([N+](=O)[O-])c1
  0%	-4%	-5	-5.0%
- O=C1CNC(=O)/C1=C/c1ccc(O)cc1
  -14%	-3%	-5	2.5%
- CC1CCCCC1NC(=O)Cn1nnc2ccccc2c1=O (stereo not given)
  -13%	-2%	-1	-2.8%
- Cc1ccc(/C=N/Nc2ccc(Cl)c(C(=O)O)c2)s1
  -5%	-65%	-6	1.5%
- CC(=O)C1=C(O)C(=O)N(c2ccc(C)cc2)C1c1ccc([N+](=O)[O-])cc1 (stereo not given)
  0%	-2%	2	0.3%
- CCCCn1c(N)c(N(CC(C)C)C(=O)CCC2CCCCC2)c(=O)[nH]c1=O
  0%	-7%	/	-0.8%
- C=CCNC(=O)c1scc2c1CCCC2
  12%	-17%	-2	-1.6%
- COc1ccc(NC(=O)CSc2nnc(-c3ccncc3)o2)c([N+](=O)[O-])c1
  21%	-5%	/	3.4%
- Cc1cc(S(=O)(=O)Nc2ccc(C(=O)NCc3ccncc3)cc2)ccc1F
  29%	/	/	0.1%
- Nc1ccc(N(CCO)CCO)cc1
  -9%	-2%	-1	1.6%
- CCC1(CC)N=C(c2ccccc2)C(=S)N1
  -2%	-1%	5	4.1%
- COC(=O)c1c(NC(=O)c2nn(C)cc2Cl)sc2c1CCCC2
  -7%	-9%	10	-0.2%
- Cc1c(N(C)C(=O)c2ccco2)c(=O)n(-c2ccccc2)n1C
  3%	0%	-3	-1.7%

Not all compounds are listed; the hit share may differ from the screen's.
